Source: PubChem
Ecoli rRNA inh: selective bacterial rRNA inhibition in E. coli; E. coli WT GFP vs humanized-ribosome RFP mutants, fluorescence, 24 h; hits give low values; DMSO median 0, no signal -100; GFP signal change (wild-type ribosome), % (no concentration beside the values); 1.6% of 350,000 active; AID 720706;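 active = significant combined selectivity score with lowered wild-type GFP, culture density cut under 30%, mutant RFP and density less affected; inactive = any of these conditions unmet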; note: one replicate is shown; some compounds called inactive have numbers as strong as hits
HNF4A DNA FP: change in binding of human HNF4 alpha to DNA; 0.3% of 360,000 active; HNF4a-FITC DNA binding, fluorescence polarization, 1 h; AID 1224865; P41235; activity change, % at 10 µM; in the data active = activity change above about 30%, passing the limit was not always enough;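 note: controls were the assay level and a saturating level of protein; the project sought stronger binding though the title names inhibitors; some compounds called inactive have numbers as strong as hits; positive values seem to mean higher polarization but the record does not say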
Target sequence (P41235 whole entry, looked up): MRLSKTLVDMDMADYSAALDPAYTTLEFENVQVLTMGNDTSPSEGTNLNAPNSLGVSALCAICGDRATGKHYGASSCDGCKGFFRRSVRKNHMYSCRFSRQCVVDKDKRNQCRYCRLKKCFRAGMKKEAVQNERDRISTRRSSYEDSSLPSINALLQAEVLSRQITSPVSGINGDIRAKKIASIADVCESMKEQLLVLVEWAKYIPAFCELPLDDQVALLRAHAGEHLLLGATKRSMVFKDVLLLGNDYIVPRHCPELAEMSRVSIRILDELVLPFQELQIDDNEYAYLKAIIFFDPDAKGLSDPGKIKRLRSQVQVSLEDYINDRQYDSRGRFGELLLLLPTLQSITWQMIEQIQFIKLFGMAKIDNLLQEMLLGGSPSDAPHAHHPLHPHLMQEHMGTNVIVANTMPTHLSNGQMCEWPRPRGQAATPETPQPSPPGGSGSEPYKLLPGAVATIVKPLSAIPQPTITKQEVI
E coli growth: inhibitors of Escherichia coli growth; OD600, 23 h; hits give low values; 0.21% of 330,000 active; OD600 absorbance (test concentration not listed);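 active = OD600 absorbance below the run mean of sample wells minus 3.6 SD, in any replicate, cut at about 0.56 in these data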;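 note: stock transfer was 300 nL into about 60 µL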
UCH37 inh: blocks the human deubiquitinase UCH37 | inhibition, % (no concentration beside the values) | AID 588478 | purified proteasome/UCH37, Ub-AMC cleavage fluorescence | 0.33% of 330,000 active | Q9Y5K5;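 active = mean of two replicates above 20%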;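 note: 0% = compound-free wells with enzyme and 100% = wells lacking proteasome; stock transfer was 100 nL into about 20 µL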
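assay system = human UCH37 enzyme supplied as purified proteasome complex | amount = proteasome at 0.15 nM in the dispensed enzyme solution | schedule = 30 min compound-proteasome preincubation then 25 min substrate reaction, room temperature | measured by = fluorescence, ex 355 nm, em 460 nm | benchmarks = no-proteasome wells (full inhibition) and compound-free wells (no inhibition)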
Beta2AR agonist: agonists of human beta-2 adrenergic receptor inducing internalization; P07550; Am2.2-beta2AR cells, FAP receptor internalization, flow cytometry; reference of the scale not given here; response, % (no concentration beside the values); 0.43% of 340,000 active;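 active = response above a set limit, near 3 SD of response in nonfluorescent compounds, cut at about 42% in these data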;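 note: stock transfer was 100 nL into about 11 µL; a reference agonist was the positive control; negative values mostly stem from fluorescent compounds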
FGF22 binding: shifts melting point of recombinant human FGF22. calls only at 9.99 µM. 1.5% of 340,000 active. Q9HCT0. recombinant FGF22 thermal shift, SYPRO orange fluorescence; percent of sucrose octasulfate shift, DMSO zero. AID 651658;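 active = melting point raised past a set limit in the mean and every replicate; three in four hits are not shown here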
Target sequence (Q9HCT0 whole entry, looked up): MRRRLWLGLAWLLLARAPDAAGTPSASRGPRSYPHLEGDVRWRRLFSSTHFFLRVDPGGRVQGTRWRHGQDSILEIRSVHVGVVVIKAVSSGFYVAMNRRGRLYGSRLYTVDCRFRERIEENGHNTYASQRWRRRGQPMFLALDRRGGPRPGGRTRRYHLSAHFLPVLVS
ALR inh: blocks human ALR sulfhydryl oxidase activity; P55789; purified ALR, DTT oxidation, H2O2 HRP-luminol luminescence; inhibition, % (no concentration beside the values); 3.8% of 290,000 active; AID 485317;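 active = mean and each replicate at 75% or more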;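 note: stock transfer was 7.5 nL into about 7.5 µL; 0% = neutral wells and 100% = wells with inactivated enzyme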
Target sequence (P55789 whole entry, looked up): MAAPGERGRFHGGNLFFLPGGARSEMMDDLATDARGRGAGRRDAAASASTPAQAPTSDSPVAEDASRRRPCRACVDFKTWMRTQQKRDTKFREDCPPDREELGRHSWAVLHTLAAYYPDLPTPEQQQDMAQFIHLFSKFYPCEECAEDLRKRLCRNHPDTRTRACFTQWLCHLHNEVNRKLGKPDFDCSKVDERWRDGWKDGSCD
Ecoli rRNA inh OD600: further read-out of Ecoli rRNA inh, marked with its call; OD600 change, %; measured here: OD600 growth;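 optical density of the mix in the first replicate; 0 = DMSO median and -100 = no signal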
Ecoli rRNA inh RFP: second read-out of Ecoli rRNA inh, no call of its own (marks repeat the call); RFP signal change, %; measured here: RFP humanized mutant strains;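 first replicate; 0 = DMSO median and -100 = no signal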
The depositor's hits bear a star; i = inactive; · = not tested or not shown.

SMILES	Ecoli rRNA inh	Ecoli rRNA inh OD600	Ecoli rRNA inh RFP	HNF4A DNA FP	E coli growth	UCH37 inh	Beta2AR agonist	FGF22 binding	ALR inh
C=CCNC(=O)c1c2c(nc3ccccc13)-c1ccccc1CC2	·	·	·	0.2	0.69	-29	0	·	-23
Cc1ccc(C)c(S(=O)(=O)N2CCN(CC(=O)Nc3cc(C)on3)CC2)c1	·	·	·	-5.1	0.7	-2.2	-5	·	-12
COc1ccc(/C=C/C(=O)N(c2ccccn2)C2CCCCC2)cc1OC	-8	-8	-0.7	-0.1	0.7	-16	-12	i	-13
O=C(Nc1ccc(Cl)cc1)c1ccco1	7	6	-0.5	-1.7	0.58	1.2	-4	i	-4
CCCCCn1cnnc1SCC(=O)c1ccc2c(c1)OCO2	·	·	·	4.1	0.68	1.8	-14	i	26
COc1cc(/C=N/Nc2nc3c(c(=O)n(C)c(=O)n3C)n2Cc2ccccc2)ccc1OC(=O)c1ccco1	7	4	0.2	-4.3	·	·	14	i	-8
COc1ccc(C)cc1S(=O)(=O)N(CC(=O)N1CCCC1)c1ccccc1	·	·	·	2.8	0.7	3.5	6	·	-2
CCNc1ccc(C(=O)Nc2ccc3nc(C)sc3c2)cc1[N+](=O)[O-]	1	4	-3.9	-5.9	0.64	0.8	-3	i	-7
O=C(CCC(=O)c1ccccc1)NCCc1c[nH]c2ccccc12	-9	-12	-11	-28	0.67	-0.8	3	i	4
Cc1cccc(C(=O)NNC(=O)c2ccc(O)cc2)c1	7	12	3.5	1.6	0.66	0.9	3	i	0
CCCN(CCC)CCCNC(=O)c1ccc2c(c1)N(CC)C(=O)c1ccccc1S2=O (stereo not drawn)	·	·	·	-1.2	0.72	6.5	-3	·	1
CCOC(=O)C1CCCN(S(=O)(=O)c2c(C)c(C)cc(C)c2C)C1 (stereo not drawn)	·	·	·	0.3	0.73	3.2	1	·	5
Cc1noc(C)c1S(=O)(=O)N1CCC(Cc2ccccc2)CC1	·	·	·	1.8	0.72	4.6	-2	·	-2
O=c1cc(CO)oc(CN2CCN(c3ccccc3)CC2)c1O	·	·	·	2.8	0.73	1.1	3	·	98*
NC(=O)C1CCN(C(=O)c2ccc(NS(=O)(=O)/C=C/c3ccccc3)cc2)CC1	9	11	2.1	0.6	·	·	·	i	·
CCOc1ccc(S(=O)(=O)N2CCCC(C(=O)NCc3cccnc3)C2)cc1C (stereo not drawn)	3	5	-3.5	2.3	0.67	6.1	-10	i	5
COc1ccc(C(=O)O/N=C(/C)c2cccs2)cc1	·	·	·	3.1	·	·	0	·	-24
CCCc1[nH]nc2c1C(c1ccc(OC(=O)c3ccco3)cc1)C(C#N)=C(N)O2 (stereo not drawn)	·	·	·	1.8	0.68	1.0	5	·	60
CCOC(=O)c1cccc(NC(=O)CSc2nc3ccccc3c(=O)n2CCOC)c1	·	·	·	3.0	0.73	2.2	5	·	2
O=[N+]([O-])c1ccc(C2CCCC/C2=N/OCc2ccccc2F)c([N+](=O)[O-])c1 (stereo not drawn)	·	·	·	-2.9	·	·	2	·	-12
CCOc1ccc(C(=O)COC(=O)c2nn(CC)c(=O)c3ccccc23)cc1	-6	7	-1.4	0.8	0.67	1.4	-3	i	·
O=S(=O)(c1ccc(Cl)c(C(F)(F)F)c1)N1CCN(CC(O)COc2ccccc2F)CC1 (stereo not drawn)	-9	-29	2.0	-0.2	0.66	2.0	8	i	·
Cc1c(CC(=O)NCC(=O)NCC(=O)O)c(=O)oc2c(C)c3oc4c(c3cc12)CCCC4	-6	-15	2.8	3.3	0.67	-34	-3	i	6
COc1cc2c(cc1OC)C(C(=O)N1CCCC1)C(c1ccccc1F)N(C)C2=O (stereo not drawn)	·	·	·	1.1	0.65	2.7	1	·	-3
Cc1ccc(NC(=O)N2CCC(NC(=O)c3ccccc3C)CC2)cc1	·	·	·	5.4	0.74	1.5	5	·	2

New compounds follow.
SMILES	Ecoli rRNA inh	Ecoli rRNA inh OD600	Ecoli rRNA inh RFP	HNF4A DNA FP	E coli growth	UCH37 inh	Beta2AR agonist	FGF22 binding	ALR inh
O=C1c2nc3cc(-c4ccccc4)[nH]n3c(=O)c2CN1Cc1ccccc1	·	·	·	·	0.67	-256	·	·	15
O=C1CC/C=C\C[C@@H](CC(=O)N(CCO)Cc2ccccc2)C(=O)NCCO1	-26	-26	8.5	3.5	·	1.3	2	i	-1
CC(C)(C)c1ccc(C(=O)Nc2ccccc2NC(=O)c2ccco2)cc1	·	·	·	-3.2	0.71	3.4	1	·	0
O=C(c1ccccc1)c1nn(-c2cccc(Cl)c2)c2nc(-c3ccccc3)cc(=O)n12	·	·	·	-4.2	0.8	-4.0	1	·	-13
Cc1cc(NCCCn2ccnc2)n2nc(-c3ccc(F)cc3)cc2n1	-5	-2	-3.4	-1.8	0.66	-8.2	-15	·	43
Cc1cccc(CCN(CC(=O)NC(C)(C)C)C(=O)c2csnn2)c1	-4	5	-2.7	3.2	0.69	5.1	-1	i	-5
Cc1nc(N2CCN(Cc3ccccc3)CC2)nc2c1C(=O)CCC2	·	·	·	2.2	·	·	4	·	-15
CC(Oc1ccccc1)C(=O)Nc1ccc(S(=O)(=O)N2CCCC2)cc1 (stereo not drawn)	1	-3	-0.7	-0.6	0.66	4.4	-7	i	·
COc1ccc(C)cc1N(CC(=O)NC1CCCC1)C(=O)CCC(=O)Nc1nc(C)cs1	-15	-6	3.6	0.4	0.63	-0.4	3	i	-6
c1ccc2c(c1)CCCN2Cc1nnnn1CC1CCCO1 (stereo not drawn)	·	·	·	-33	0.67	0.8	3	·	26
O=c1c2c3c(sc2nc(NCCO)n1Cc1ccco1)CCCCC3	-16	-19	-1.7	-1.3	0.72	6.2	9	i	8
CC1(C)OC2OC(C3COC(=O)O3)C(OC(=O)c3ccccc3)C2O1 (stereo not drawn)	3	5	0.0	-1.7	0.71	4.3	3	i	·
O=C(NCCS(=O)(=O)N1CCN(c2ccccc2)CC1)C1CC(=O)N(c2ccccc2)C1 (stereo not drawn)	9	2	-3.1	1.4	0.72	0.2	6	i	3
Cc1ccc(N(C(=O)CCC(=O)Nc2cc(C)on2)C(C(=O)NC2CCCC2)c2ccncc2)cc1 (stereo not drawn)	·	·	·	0.6	0.66	-1.3	-12	·	-5
CCOc1cccc(-c2c(C(=O)N/N=C/c3ccncc3)nnn2-c2nonc2N)c1	2	0	-2.7	0.9	·	·	-3	i	3
COc1ccc(OCCCN(C)Cc2ccccc2)cc1	18	12	-3.2	-0.6	0.6	1.8	12	i	-7
COc1ccc(C(C(=O)NC(C)(C)C)N(C(=O)CCC(=O)Nc2cc(C)on2)c2ccccc2F)cc1 (stereo not drawn)	7	12	-1.2	-3.5	0.69	1.8	-7	i	·
Cc1cc2oc(=O)cc(CN3CCN(Cc4ccccc4)CC3)c2cc1O	-14	-14	-11	1.1	0.6	1.3	9	i	·
CCN1CNC(=S)N(C(C)c2ccccc2)C1 (stereo not drawn)	7	-3	3.0	-1.5	0.72	-2.4	3	i	-3
COc1ccc(C2CC3(CC(C)(C)NC(=S)N3)Oc3cc(O)cc(C)c32)cc1 (stereo not drawn)	·	·	·	-1.6	0.66	1.1	4	·	11
Cc1nn(Cc2c(Cl)cccc2Cl)c(C)c1NC(=O)/C=C/c1cnn(C)c1C	·	·	·	0.1	0.68	8.5	-16	·	0
COC(=O)CSc1nc(NC(C)C)nc(N(C)C)n1	14	4	-0.2	2.2	0.73	2.5	5	·	·
COCCN(C(=O)C1=COCCO1)c1c(N)n(Cc2ccccc2)c(=O)[nH]c1=O	22	15	1.1	4.3	0.74	1.8	-4	i	1
CCC(C)n1c(=S)[nH]c2c(sc3ccc([N+](=O)[O-])cc32)c1=O (stereo not drawn)	-32*	-20*	-0.9*	3.2	0.69	1.6	11	i	2
CCn1c(SCC(=O)c2ccc(OC)cc2)nnc1C1CC1	·	·	·	-3.4	0.7	2.1	-13	·	21

The listing continues:
SMILES	Ecoli rRNA inh	Ecoli rRNA inh OD600	Ecoli rRNA inh RFP	HNF4A DNA FP	E coli growth	UCH37 inh	Beta2AR agonist	FGF22 binding	ALR inh
CCCCCn1nc(C(=O)N(CC)c2c(N)n(CCCC)c(=O)[nH]c2=O)c2ccccc2c1=O	·	·	·	1.0	0.67	0.9	-6	i	-5
COc1ccccc1CNC(=O)c1ccccc1NC(=O)C1=C(C)OCCS1	-24	-11	-4.0	1.8	0.69	1.3	-3	i	-3
CCOC(=O)C1CCN(C(=O)Cn2cc(C#N)c3ccccc32)CC1	·	·	·	2.7	0.75	-0.4	2	·	-3
CN=C1S/C(=C\c2ccc(N3CCOCC3)cc2C)C(=O)N1C	·	·	·	0.6	0.69	5.2	-8	·	20
CCOc1ccc(N2CC(C(=O)NNC(=O)c3ccc(Br)cc3)CC2=O)cc1 (stereo not drawn)	12	16	-0.1	-5.2	·	·	-7	i	-12
OCC[C@@H]1C[C@H](O)[C@@H](O)[C@@]2(OCc3ccc4ccccc4c32)O1	6	7	-2.4	6.0	·	·	·	i	·
CCCn1c(SCC(=O)NCc2ccc(OC)cc2)n[nH]c1=O	3	1	1.0	2.1	0.69	1.8	4	i	36
COCCn1c(NCc2ccco2)nc2c1c(=O)[nH]c(=O)n2C	15	15	0.6	-2.6	0.65	4.7	-8	i	26
Cc1cc2c(ccc3[nH]onc32)n1	·	·	·	-2.5	·	·	-4	·	-37
Clc1ccc(-c2noc(CCCOc3ccccc3)n2)cc1	·	·	·	-4.7	0.72	2.5	-4	·	-5
O=C(Nn1cc(C(=O)N2CCN(c3ccccc3F)CC2)c2ccccc2c1=O)c1cnccn1	·	·	·	1.0	0.71	1.7	11	·	12
COC(=O)c1sc(-c2ccc(C(C)(C)C)cc2)cc1NC(=O)/C=C/C(=O)O	·	·	·	-5.8	·	·	15	i	98*
CC(C)OCCCNC(=S)N1CCC(C(=O)c2ccc(F)cc2)CC1	-3	-4	-1.8	3.0	·	·	·	i	·
COc1ccc(-c2cc(C(=O)N3CCCCCC3)c3ccccc3n2)c(OC)c1	-33*	-26*	-0.5*	-7.7	0.74	-29	6	i	0
COc1ccc(OC)c(NC(=O)CSc2nc(=O)n(Cc3ccccn3)c3c2CCC3)c1	-5	0	-0.5	-3.1	0.7	4.1	-4	i	-6

For reference, some entries already given.
SMILES	Ecoli rRNA inh	Ecoli rRNA inh OD600	Ecoli rRNA inh RFP	HNF4A DNA FP	E coli growth	UCH37 inh	Beta2AR agonist	FGF22 binding	ALR inh
CCOc1ccc(N2CC(C(=O)NNC(=O)c3ccc(Br)cc3)CC2=O)cc1 (stereo not drawn)	12	16	-0.1	-5.2	·	·	-7	i	-12
OCC[C@@H]1C[C@H](O)[C@@H](O)[C@@]2(OCc3ccc4ccccc4c32)O1	6	7	-2.4	6.0	·	·	·	i	·
CCCn1c(SCC(=O)NCc2ccc(OC)cc2)n[nH]c1=O	3	1	1.0	2.1	0.69	1.8	4	i	36
COCCn1c(NCc2ccco2)nc2c1c(=O)[nH]c(=O)n2C	15	15	0.6	-2.6	0.65	4.7	-8	i	26
Cc1cc2c(ccc3[nH]onc32)n1	·	·	·	-2.5	·	·	-4	·	-37
Clc1ccc(-c2noc(CCCOc3ccccc3)n2)cc1	·	·	·	-4.7	0.72	2.5	-4	·	-5
O=C(Nn1cc(C(=O)N2CCN(c3ccccc3F)CC2)c2ccccc2c1=O)c1cnccn1	·	·	·	1.0	0.71	1.7	11	·	12
COC(=O)c1sc(-c2ccc(C(C)(C)C)cc2)cc1NC(=O)/C=C/C(=O)O	·	·	·	-5.8	·	·	15	i	98*
CC(C)OCCCNC(=S)N1CCC(C(=O)c2ccc(F)cc2)CC1	-3	-4	-1.8	3.0	·	·	·	i	·

An excerpt (hit frequency here may not be typical).
